Bioassay records deposited in PubChem BioAssay by several laboratories.
eIF4H inh: inhibitors of RNA binding by human eIF4H; eIF4H fluorescence polarization binding assay; inhibition, % at 35 µM; hit rate 0.94% among 290,000; AID 2012;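 active = 50% or more with normal probe brightness, or confirmed in later tests; inconclusive = above 50% with abnormal brightness, or retests that disagree; inactive = below 50% or failed in later tests; about a fifth of its hits are not listed in these tables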;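 note: calls also rest on retests at 20 µM and on dose response follow-up; 0% = protein and probe with vehicle and 100% = probe without protein; strong numbers were not always called active; many hits fall short of the cut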
PABP FP inh: blocks human PABP binding to poly(A) RNA | fluorescence polarization | inhibition, % at 35 µM | hit rate 1% among 290,000;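 active = 50% or more with normal probe brightness, or confirmed in later tests; inconclusive = above 50% with abnormal brightness, or retests that disagree; inactive = below 50% or failed in later tests; about a fifth of its hits are not listed in these tables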;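 note: calls also rest on retests at 20 µM and on dose response follow-up; controls were probe without protein and protein plus probe with vehicle; some compounds called inactive have numbers as strong as hits; many hits fall short of the cut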
Target sequence (P11940 whole entry, looked up): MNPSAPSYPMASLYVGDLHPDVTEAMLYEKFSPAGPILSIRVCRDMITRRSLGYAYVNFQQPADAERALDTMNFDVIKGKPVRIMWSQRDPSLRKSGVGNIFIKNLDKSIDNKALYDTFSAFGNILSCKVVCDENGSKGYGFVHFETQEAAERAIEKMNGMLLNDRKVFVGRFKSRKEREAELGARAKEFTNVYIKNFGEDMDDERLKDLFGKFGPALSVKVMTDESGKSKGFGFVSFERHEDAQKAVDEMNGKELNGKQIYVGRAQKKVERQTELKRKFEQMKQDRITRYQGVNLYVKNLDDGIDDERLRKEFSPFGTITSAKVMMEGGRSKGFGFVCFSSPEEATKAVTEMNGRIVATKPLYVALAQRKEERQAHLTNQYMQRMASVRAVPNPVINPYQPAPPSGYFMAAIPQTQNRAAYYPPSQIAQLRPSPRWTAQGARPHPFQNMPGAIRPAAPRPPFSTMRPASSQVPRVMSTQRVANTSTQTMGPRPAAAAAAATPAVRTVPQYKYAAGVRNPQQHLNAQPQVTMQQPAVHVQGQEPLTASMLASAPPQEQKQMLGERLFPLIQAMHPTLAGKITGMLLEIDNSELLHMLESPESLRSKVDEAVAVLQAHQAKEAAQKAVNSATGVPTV
CSC inhib: cancer stem cell inhibition. cancer stem cell-like cells viability, luminescence. inhibition, % at 7.5 µM. hit rate 1.1% among 300,000;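 active = mean at 75% or more and at least half the replicates too; inconclusive = mean and replicates disagree; tested in HMLE shEcad cells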;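 note: 0% = median of negative and 100% = median of positive control wells; the first replicate is given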
HIV Env fusion: blocks HIV Env-driven cell-cell fusion. hit rate 1.1% among 360,000. AID 651610. HeLa-JRFL Env/CEM21 cell fusion, luciferase. inhibition, % at 12.3 µM;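 active = mean replicate inhibition score of at least 50 and every replicate individually at or above 50; inconclusive = only one of the two criteria met; inactive = mean below 50 and not all replicates reaching 50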;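 note: 0% = plate neutral controls and 100% = maraviroc near 300 nM; one replicate is shown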
Rce1 inh: blocks yeast Ras-converting enzyme; Q03530; yeast membranes, quenched prenylated peptide cleavage fluorescence; calls only; hit rate 0.27% among 290,000; AID 2563;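 active = fall in fluorescence gain of 50% or more versus controls, with final raw signal at or below 3038400; inconclusive = same 50% fall but final raw signal above 3038400; inactive = fall in fluorescence gain under 50%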;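 note: plate controls were neutral control wells for no effect and wells lacking membranes for full effect; tested at 10 µM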
Yeast UUG start: modulators of start codon recognition fidelity in yeast. S. cerevisiae UUG-firefly luciferase reporter, luminescence/redox ratio. activity score, % at 18.7 µM. hit rate 0.13% among 350,000;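 active = replicate mean at a twofold rise or more, about +100% in these data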;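 note: firefly luciferase made from a UUG start codon reports start codon fidelity; reporter light over untreated wells divided by growth signal over untreated wells; some hits fall short of that in this replicate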
MT1-MMP act inh: MT1-MMP (human) activation inhibition | P50281 | HT1080 RFP-PRO-GFP cells, GFP/RFP ratio fluorescence, overnight; percent of plate control window, DMSO zero | GFP/RFP ratio change, % at 20 µM | hit rate 0.061% among 360,000;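 active = GFP/RFP ratio change of at least 30% with cell ATP level not reduced by more than half and red fluorescence within 50% of control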; note: strong numbers were not always called active
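Assay system: HT1080 RFP-PRO-GFP cells. Benchmarks: DMSO vehicle wells and RFP-L50D-GFP reporter cell wells. Times: overnight cell settling, then overnight compound exposure, 37 °C, 5% CO2. Compound: 20 µM single dose, 1% DMSO. Read-out basis: GFP/RFP fluorescence ratio.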
eIF4H inh retest: recorded beside eIF4H inh, whose call it bears; inhibition, %; compound at 20 µM; confirmation average;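 mean of two retest wells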
PABP FP inh retest: recorded beside PABP FP inh, whose call it bears; inhibition, %; compound at 20 µM; confirmation repeats;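 mean of two retest wells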
MT1-MMP act inh RFP: recorded beside MT1-MMP act inh, whose call it bears; RFP signal change, %; measured here: RFP expression control read;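 0 = vehicle wells; hits needed this value within 50% of zero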
* = called active by the depositor; i = inactive; ? = inconclusive; · = not tested or not shown. Some of the compounds tested; count on the stated rates, not on these rows.

SMILES	eIF4H inh	PABP FP inh	CSC inhib	HIV Env fusion	Rce1 inh	Yeast UUG start	MT1-MMP act inh	MT1-MMP act inh RFP	others
CCCCNc1nc2ccccc2n1CC(=O)Nc1ccc2c(c1)OCCO2	-8	3	-5	7	i	·	·	·
COc1nc(Nc2ccc(-c3nc4ccccc4o3)cc2)nc(N2CCOCC2)n1	·	·	2	·	i	-15	5	-2
COCOc1ccc(C=O)cc1OCOC	·	·	12	·	i	-19	3	1
COC(=O)c1ccccc1-n1c(C)nc(=O)c(-c2ccccc2)c1C	-6	-2	8	6	i	·	6	5
Cc1ccc(S(=O)(=O)CCC(=O)Nc2ccccc2Cl)cc1	3	-4	·	28	i	-13	-4	2
COc1ccc(N(CC(=O)N2CCN(c3cccc(C)c3C)CC2)S(=O)(=O)c2c(C)noc2C)cc1	-13	-2	22	13	i	-7	1	-10
O=C(Nc1ccccc1)c1ccccc1C(=O)N1CCCCC1	-4	5	-4	-20	·	·	1	0
CCCCn1nnnc1SCC(=O)N1CCN(C(=O)c2ccco2)CC1	6	4	-5	·	i	-2	2	1
CC(=O)Nc1ccc(N2C(=O)CC(N3CCN(Cc4ccc5c(c4)OCO5)CC3)C2=O)cc1 (centres undefined)	4	4	1	·	i	-12	0	3
COCCCN1C(=O)C(CC(=O)NC2CCCCC2)CC(C(=O)N(C)C)=C1C (centres undefined)	·	·	·	-11	·	-22	2	7
CCOc1ccc(C2OC34CCCCC3C(C#N)(C#N)C2(C#N)C(=N)O4)cc1OC (centres undefined)	?	?	5	·	i	-17	-46	17
COc1ccc(N=C2SCC(c3ccccc3)=NN2C)cc1	-8	-5	-10	14	·	·	2	-2
N#CCCn1cc(C(=O)O)c(-c2cc3ccccc3o2)n1	-9	-10	-8	·	i	-12	4	4
CCN1CCN(CCC(=O)Nc2ccc(C)cc2)CC1	-7	0	-17	-2	i	-7	3	8
CCc1ccccc1NC(=O)NCc1cccnc1	-2	-1	5	11	i	-10	-3	-2
O=C(NCC#CCOCc1ccccc1)c1ccccc1	6	6	10	18	i	-16	-2	5
CCC12OC(=N)C(C#N)(C1C)C(C#N)(C#N)C(c1ccccc1)O2 (centres undefined)	?	85*	3	16	i	-8	1	8	PABP FP inh retest=102*
COc1ccc(/C(N)=N/OC(=O)Cc2cccs2)cc1OC	2	11	-10	17	i	·	-3	-1
Cc1ccc(-c2nc3c(c(SCC(=O)N4CCCC4)n2)COC(C)(C)C3)cc1	·	·	·	26	·	-11	-4	-7
CC1=C(C#N)C2C(/C1=N/O)C2(C)C (centres undefined)	4	1	-16	·	i	-6	4	-7
CCCCCCn1c(=O)[nH]c2c(c1=O)CCC2	-7	-1	-10	13	i	-11	-1	-1
O=c1c2ccccc2c(C=Nc2cccc(O)c2)c(O)n1-c1ccc2c(c1)OCO2	10	-15	52	·	i	-9	-6	1
Cc1cc(-c2ccc(F)cc2)n2ncc(-c3ccccc3)c2n1	·	·	·	-229	·	-14	-3	2
Cc1ccc(NC(=S)N(CCCN2CCOCC2)Cc2ccccn2)cc1Cl	6	-2	-7	20	i	-24	1	5
Cc1c(C)n(Cc2ccc(Cl)cc2)c2ccc(C(=O)NCCCN3CCOCC3)cc12	-13	-9	57	7	i	-9	-1	-6

Two records drawn at random from the list so far, as already listed:
SMILES	eIF4H inh	PABP FP inh	CSC inhib	HIV Env fusion	Rce1 inh	Yeast UUG start	MT1-MMP act inh	MT1-MMP act inh RFP	others
CCOc1ccc(C2OC34CCCCC3C(C#N)(C#N)C2(C#N)C(=N)O4)cc1OC (centres undefined)	?	?	5	·	i	-17	-46	17
COCCCN1C(=O)C(CC(=O)NC2CCCCC2)CC(C(=O)N(C)C)=C1C (centres undefined)	·	·	·	-11	·	-22	2	7

3 compounds from above, arranged by molar mass, largest number first.
SMILES	eIF4H inh	PABP FP inh	CSC inhib	HIV Env fusion	Rce1 inh	Yeast UUG start	MT1-MMP act inh	MT1-MMP act inh RFP	others
O=c1c2ccccc2c(C=Nc2cccc(O)c2)c(O)n1-c1ccc2c(c1)OCO2	10	-15	52	·	i	-9	-6	1
Cc1ccc(S(=O)(=O)CCC(=O)Nc2ccccc2Cl)cc1	3	-4	·	28	i	-13	-4	2
CCC12OC(=N)C(C#N)(C1C)C(C#N)(C#N)C(c1ccccc1)O2 (centres undefined)	?	85*	3	16	i	-8	1	8	PABP FP inh retest=102*

Returning to the listing, repeating the five entries before the break.
SMILES	eIF4H inh	PABP FP inh	CSC inhib	HIV Env fusion	Rce1 inh	Yeast UUG start	MT1-MMP act inh	MT1-MMP act inh RFP	others
CCCCCCn1c(=O)[nH]c2c(c1=O)CCC2	-7	-1	-10	13	i	-11	-1	-1
O=c1c2ccccc2c(C=Nc2cccc(O)c2)c(O)n1-c1ccc2c(c1)OCO2	10	-15	52	·	i	-9	-6	1
Cc1cc(-c2ccc(F)cc2)n2ncc(-c3ccccc3)c2n1	·	·	·	-229	·	-14	-3	2
Cc1ccc(NC(=S)N(CCCN2CCOCC2)Cc2ccccn2)cc1Cl	6	-2	-7	20	i	-24	1	5
Cc1c(C)n(Cc2ccc(Cl)cc2)c2ccc(C(=O)NCCCN3CCOCC3)cc12	-13	-9	57	7	i	-9	-1	-6
CC1CCN(c2ccccc2NC(=O)c2ccc(Br)o2)CC1	-11	5	36	8	i	-20	-4	-3
Cc1ccc(C(=O)NCc2ccc(N3CCN(C(=O)OC(C)(C)C)CC3)cc2)cc1	-4	-2	13	10	i	-8	-3	-10
C=CC(C)(O)CCC=C(C)C (centres undefined)	·	·	-4	·	·	-13	5	4
O=C(Nc1nnc(C2CC2)s1)c1ccc(S(=O)(=O)c2ccccc2)cc1	0	0	-10	-35	i	-32	2	-6
C=CCn1c(-c2oc3nc(-c4ccccc4)cc(-c4ccccc4)c3c2N)n[nH]c1=S	70	-6	·	-46	i	-30	11	5	eIF4H inh retest=-5;PABP FP inh retest=5
O=C(CCCl)N1c2ccccc2C=Cc2ccccc21	·	·	·	6	·	4	3	-10
CC(Sc1nc2ccc(C(=O)c3ccccc3)cc2[nH]1)C(=O)O (centres undefined)	5	7	-10	3	i	-14	2	3
COC1CCN(C(=O)c2ccc(OC3CCN(Cc4ccccn4)CC3)cc2)CC1	-3	3	13	-6	i	1	-2	-1
O=c1c([N+](=O)[O-])cc(C(F)(F)F)cn1Cc1cccc(Cl)c1	-12	-12	2	-10	i	-14	4	2
O=C1NC(=S)N/C1=C/c1ccc2ccccc2c1	-5	-8	-4	-6	i	-11	-1	2
COC(C(=O)N1CCC(n2nccc2NC(=O)C2CC2)CC1)c1ccccc1 (centres undefined)	·	·	-5	-23	i	-5	-1	3
NC(=O)c1nsc(C(=O)N(Cc2ccc(F)cc2)C(C(=O)NCC2CCCO2)c2ccc(F)cc2)c1N (centres undefined)	-10	2	-11	-33	i	-5	-1	-1
CCSC1=NSC2=NC(=O)/C(=C\c3coc4ccccc4c3=O)C(=N)N12	?	8	12	13	·	·	-54	-1
c1csc(-c2nc(NCCCN3CCOCC3)c3ccccc3n2)c1	-6	4	·	3	i	·	6	7
CN(CC(=O)Nc1cccc2ccccc12)C(=O)c1cccc(S(=O)(=O)N(C)C)c1	-8	1	-10	9	i	-6	3	-1
CCCCNC(=O)OCCNC(=O)Oc1cccc(C)c1	-1	0	1	·	i	-5	3	6
COC(=O)CCC(=O)NNC(=O)c1ccc([N+](=O)[O-])cc1	-8	14	-9	-39	i	·	2	4
CN1CCN(C(=O)CC2C(=O)NCCN2Cc2ccc(-c3ccccc3)cc2)CC1 (centres undefined)	-3	-6	-6	1	i	·	0	3
CCN(CCO)c1cc(Cl)nc(SC)n1	-1	8	-12	14	i	-15	0	6
O=C1CCCc2nc3c(cc21)C(O)Oc1ccccc1-3 (centres undefined)	4	-7	-5	-7	i	16	-2	-4
COc1ccc(NC2CCCN(C(=O)c3cccnc3SC)C2)cc1OC (centres undefined)	-10	8	-15	-1	i	-9	1	1
COc1cccc(NC(=O)c2ccn(C)n2)c1	1	4	-4	i	i	-10	1	4
Cc1c(Cl)cccc1NC(=S)NN	2	-13	-9	13	i	·	-1	-2
O=C(/C=C\c1cn(-c2ccccc2)nc1-c1ccccc1)Nc1nccs1	-3	-4	11	0	i	·	2	0
Cc1ccc(S(=O)(=O)/N=C(/Nc2c(C)n(C)n(-c3ccccc3)c2=O)c2ccc(Cl)cc2)cc1	-11	2	-5	·	i	0	-1	0
CCOP(=O)(c1ccc(N(C)C)cc1)C(O)c1ccc(OC)cc1 (centres undefined)	-2	-9	-16	1	i	·	1	2
Cn1c(=O)[nH]c(=O)c2c1nc(Br)n2C/C=N/Nc1ccccc1	-1	11	33	17	i	-6	0	-1
C/C(=N/Nc1cc(-c2ccccc2)nc(-c2ccccc2)n1)c1ccc(O)cc1	-1	-2	106*	-72	i	-16	-2	-4
O=C(Cn1ccc(=O)[nH]c1=O)Nc1ccc(C(=O)O)c(O)c1	21	26	-4	1	i	-21	1	3
Cc1cccc(NC2=NC(C)(C)N=C(N)N2)c1C	-2	-3	15	-21	i	-10	2	3
